# HNF4A DNA FP = change in binding of human HNF4 alpha to DNA; HNF4a-FITC DNA binding, fluorescence polarization, 1 h; activity change, % at 10 µM; 360,000 compounds, 0.3% hits; AID 1224865; in the data active = activity change above about 30%, passing the limit was not always enough;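 note: controls were the assay level and a saturating level of protein; the project sought stronger binding though the title names inhibitors; some compounds called inactive have numbers as strong as hits; positive values seem to mean higher polarization but the record does not say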
# ALR inh = inhibitors of human sulfhydryl oxidase ALR; P55789; purified ALR, DTT oxidation, H2O2 HRP-luminol luminescence; 290,000 compounds, 3.8% hits; inhibition, % (test concentration not listed);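 active = mean and each replicate at 75% or more; inconclusive = only one of the two met; inactive = neither met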;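 note: stock transfer was 7.5 nL into about 7.5 µL; 0% = neutral wells and 100% = wells with inactivated enzyme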
# Target sequence (P55789 whole entry, looked up): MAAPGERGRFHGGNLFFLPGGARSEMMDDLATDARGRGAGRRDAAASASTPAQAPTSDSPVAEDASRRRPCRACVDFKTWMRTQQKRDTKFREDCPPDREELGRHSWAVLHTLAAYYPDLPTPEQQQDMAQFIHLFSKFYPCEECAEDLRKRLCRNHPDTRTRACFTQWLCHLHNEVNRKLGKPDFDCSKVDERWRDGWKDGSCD
# FGF22 binding = FGF22 (human) thermal shift binding; Q9HCT0; recombinant FGF22 thermal shift, SYPRO orange fluorescence; percent of sucrose octasulfate shift, DMSO zero; calls only at 9.99 µM; 340,000 compounds, 1.5% hits;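 active = melting point raised past a set limit in the mean and every replicate; inconclusive = no clear call; three in four hits are not shown here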
# Target sequence (Q9HCT0 whole entry, looked up): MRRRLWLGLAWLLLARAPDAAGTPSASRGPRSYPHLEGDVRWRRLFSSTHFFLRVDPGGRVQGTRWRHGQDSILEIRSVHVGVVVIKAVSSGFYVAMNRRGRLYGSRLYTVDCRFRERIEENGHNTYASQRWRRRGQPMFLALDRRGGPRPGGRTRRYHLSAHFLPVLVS
# rRNA inh HTS = inhibitors of bacterial rRNA selective over humanized ribosomes; E. coli WT GFP vs humanized-ribosome RFP mutants, fluorescence, 24 h; stronger effect = lower value; DMSO median 0, no signal -100; GFP signal change (wild-type ribosome), % (concentration not given with the values); 350,000 compounds, 1.6% hits;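 active = significant combined selectivity score with lowered wild-type GFP, culture density cut under 30%, mutant RFP and density less affected; inactive = any of these conditions unmet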; note: one replicate is shown; some compounds called inactive have numbers as strong as hits
# MLL AF4-AF9 inh = MLL-AF4/AF9 protein interaction inhibition | 350,000 compounds, 0.47% hits | inhibition, % at 10 µM | P42568 | AlphaScreen, biotin-AF4 peptide binding to FLAG-AF9 | AID 651704;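 active = every replicate reaching a set inhibition limit, whatever the replicate mean, cut at about 25% in these data; inconclusive = mean inhibition reaches that limit but some replicates miss it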;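 note: 0% = plate neutral control median and 100% = total signal loss; the record names both 10 and 1 µM as test concentration; the first replicate is given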
# Target sequence (P42568 whole entry, looked up): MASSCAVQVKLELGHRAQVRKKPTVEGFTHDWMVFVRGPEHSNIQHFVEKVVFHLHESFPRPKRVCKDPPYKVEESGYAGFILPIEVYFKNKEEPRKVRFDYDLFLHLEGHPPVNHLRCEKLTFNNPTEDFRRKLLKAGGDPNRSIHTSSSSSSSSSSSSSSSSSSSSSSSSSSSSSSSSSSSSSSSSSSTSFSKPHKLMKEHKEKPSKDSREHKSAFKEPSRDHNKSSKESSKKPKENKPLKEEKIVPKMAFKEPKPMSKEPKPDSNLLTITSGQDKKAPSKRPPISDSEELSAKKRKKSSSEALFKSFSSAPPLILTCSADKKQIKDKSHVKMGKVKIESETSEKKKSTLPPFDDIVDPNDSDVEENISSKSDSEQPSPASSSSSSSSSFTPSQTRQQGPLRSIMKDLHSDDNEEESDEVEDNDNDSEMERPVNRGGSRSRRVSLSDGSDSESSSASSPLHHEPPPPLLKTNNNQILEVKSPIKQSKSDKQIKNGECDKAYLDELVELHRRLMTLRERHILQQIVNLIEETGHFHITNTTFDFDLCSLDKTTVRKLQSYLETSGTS
# Ecoli growth = inhibitors of Escherichia coli growth; 330,000 compounds, 0.21% hits; OD600 absorbance (test concentration not listed); OD600, 23 h; stronger effect = lower value;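 active = OD600 absorbance below the run mean of sample wells minus 3.6 SD, in any replicate, cut at about 0.56 in these data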;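 note: stock transfer was 300 nL into about 60 µL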
# Vif TR-FRET = HIV-1 Vif–A3G interaction blockers – biochemical, TR-FRET, GST-Vif 1-94, biotin-A3G peptide, dose response retest, primary screen (AID 1117319). TR-FRET GST-Vif / biotin-A3G peptide binding; higher % means a stronger effect; test concentration not given here; strong numbers were not always called active. inhibition, %, or IC50 in µM where a hit was titrated. 260,000 compounds, 0.57% hits;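 active = above the screen mean plus three standard deviations and confirmed in dose response; inconclusive = results disagree or hit not tested in dose response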;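 note: Vif residues 1-94 fused to GST binding biotinylated APOBEC3G peptide 110-148; 0% = full assay without inhibitor and 100% = GST in place of GST-Vif; retest series ran down from 100 µM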
# rRNA inh HTS OD600 = second read-out of rRNA inh HTS, no call of its own (marks repeat the call); OD600 change, %; measured here: OD600 growth;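 optical density of the mix in the first replicate; 0 = DMSO median and -100 = no signal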
# rRNA inh HTS RFP = recorded beside rRNA inh HTS, whose call it bears; RFP signal change, %; measured here: RFP humanized mutant strains;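 first replicate; 0 = DMSO median and -100 = no signal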
# The depositor's hits bear a star; i = inactive; ? = inconclusive; . = not tested or not shown.
HNF4A DNA FP	ALR inh	FGF22 binding	rRNA inh HTS	rRNA inh HTS OD600	molecule	rRNA inh HTS RFP	MLL AF4-AF9 inh	Ecoli growth	Vif TR-FRET
1.9	.	i	7	16	OCC[C@H]1C[C@@H](O)[C@H](O)[C@]2(CCCO2)O1	-1.5	1.4	.	.
1.4	1	i	-46	-73	COC(=O)[C@H](CC(C)C)NC(=O)N1CCN(c2cccc(C(F)(F)F)c2)CC1	-16	4.6	0.69	3%
1.1	.	.	-2	3	CN(C(=O)c1ccc(NC(=O)Cc2cccc(NC(=O)C3CCN(C(=O)c4ccccc4)CC3)c2)cc1)C1CC1	-2.4	1.6	.	0%
1.8	6	i	1	4	CN1CCN(S(=O)(=O)Cc2ccccc2Cl)CC1	1.9	1.1	0.67	.
.	.	i	-5	-49	C[C@H]1CN([C@@H](C)CO)C(=O)c2cc(-c3cccnc3)cnc2O[C@@H]1CN(C)Cc1ccc(-c2ccccc2)cc1	36	16	.	.
-0.7	.	i	5	16	Cn1c(SCC(=O)Nc2ccc(NC(=O)c3cccc(F)c3)cc2)nnc1-c1ccncc1	-1.3	-2.3	0.63	-1%
-1.0	-10	i	-4	-10	CN1CCN(c2ccc(S(=O)(=O)Nc3ccccc3)cc2[N+](=O)[O-])CC1	0.7	0.1	0.73	-4%
-0.9	-4	.	.	.	CC1=Nn2c(nnc2-c2cc(-c3ccccc3)n[nH]2)SC1	.	.	0.72	9%

# Some of these compounds in order of the rRNA inh HTS RFP value, high to low.
SMILES | HNF4A DNA FP | ALR inh | FGF22 binding | rRNA inh HTS | rRNA inh HTS OD600 | rRNA inh HTS RFP | MLL AF4-AF9 inh | Ecoli growth | Vif TR-FRET
C[C@H]1CN([C@@H](C)CO)C(=O)c2cc(-c3cccnc3)cnc2O[C@@H]1CN(C)Cc1ccc(-c2ccccc2)cc1 | . | . | i | -5 | -49 | 36 | 16 | . | .
Cn1c(SCC(=O)Nc2ccc(NC(=O)c3cccc(F)c3)cc2)nnc1-c1ccncc1 | -0.7 | . | i | 5 | 16 | -1.3 | -2.3 | 0.63 | -1%
OCC[C@H]1C[C@@H](O)[C@H](O)[C@]2(CCCO2)O1 | 1.9 | . | i | 7 | 16 | -1.5 | 1.4 | . | .
CN(C(=O)c1ccc(NC(=O)Cc2cccc(NC(=O)C3CCN(C(=O)c4ccccc4)CC3)c2)cc1)C1CC1 | 1.1 | . | . | -2 | 3 | -2.4 | 1.6 | . | 0%

# The listing picks up, starting two compounds before the break.
HNF4A DNA FP	ALR inh	FGF22 binding	rRNA inh HTS	rRNA inh HTS OD600	molecule	rRNA inh HTS RFP	MLL AF4-AF9 inh	Ecoli growth	Vif TR-FRET
-1.0	-10	i	-4	-10	CN1CCN(c2ccc(S(=O)(=O)Nc3ccccc3)cc2[N+](=O)[O-])CC1	0.7	0.1	0.73	-4%
-0.9	-4	.	.	.	CC1=Nn2c(nnc2-c2cc(-c3ccccc3)n[nH]2)SC1	.	.	0.72	9%
-2.9	-5	i	-7	-6	COc1cc(SC)ccc1C(=O)OCC(=O)NC1CCCC1	0.7	-7.3	0.66	6%
-1.1	1	.	.	.	O=C(c1ccccc1)c1c[nH]c(C(=O)NCc2cccnc2)c1	.	.	0.79	-6%
-0.1	4	.	.	.	CC(C)(C)c1nc2ccccc2c2nnc(SCC(=O)NCc3ccco3)n12	.	.	0.65	0%
-1.9	-21	.	.	.	COCCNCCCCOc1ccc(C)cc1[N+](=O)[O-]	.	.	0.68	-5%
5.1	-2	.	8	7	CC(=O)c1cccc(N=Cc2c(O)c3ccccc3oc2=O)c1	1.3	3.7	0.71	.
-2.2	.	i	2	1	COc1cccc(CCNC(=O)CCc2nnc(Cc3cc(OC)ccc3OC)o2)c1	1.8	-0.8	0.68	.
-1.7	-2	i	.	.	CC(=O)Nc1cccc(C(=O)Nc2cccc(S(=O)(=O)NCc3ccco3)c2)c1	.	1.9	0.67	-4%
-4.5	0	i	2	-6	CSC1=C(C#N)C(c2sccc2C)CC(=O)N1 (stereo not drawn)	-0.7	-0.1	0.71	-3%
0.4	.	i	-2	2	O=C(NC(Cc1ccccc1)C(=O)O)NC12CC3CC(CC(C3)C1)C2 (stereo not drawn)	2.7	1.5	0.71	.
.	.	i	-5	-6	O=C(c1ccncc1)N1CC2(C1)[C@@H](c1ccccc1)[C@@H](CO)N2CC1CCCC1	1.9	0.8	.	.
-4.4	.	i	11	4	CC1CCCC(C)N1C(=O)COC(=O)COc1ccc(C#N)cc1 (stereo not drawn)	2.3	-11	0.68	.
-0.1	-25	i	8	10	Cc1ccc(C)c(NC(=O)Nn2cnnc2)c1	-1.7	-0.7	0.71	.
-1.2	97*	i	9	-6	COc1cc(/C=N/Nc2ccccn2)ccc1O	0.3	8.8	.	11%
-0.8	.	i	3	7	Cc1c(Cl)cccc1NC(=O)CNC(=O)CCCc1nc2ccccc2c(=O)[nH]1	-2.7	-1.2	0.69	4%
1.9	.	i	12	16	COc1cc(C=NC2CCCCC2)ccc1O	1.9	-1.6	.	3%
3.1	-4	.	.	.	O=c1c2c3c(sc2nc2sc(C4CC4)nn12)CCCC3	.	.	0.75	-16%
-1.8	.	.	.	.	COc1ccccc1CC(=O)Nc1ccc(O)cc1C(=O)O	.	.	0.7	2%
.	.	i	-9	-25	COc1ccccc1CN1[C@@H](CO)[C@@H](c2ccccc2)C12CN(C(=O)c1ccccn1)C2	0.5	-1.8	.	.
.	.	i	8	14	O=C(C1CCC1)N1C[C@H]2[C@@H](c3ccccc31)[C@H](CO)N2C(=O)c1ccccc1F	-1.7	1.6	.	.
-3.7	-1	i	.	.	COc1cccc(NC(=O)CN(C)C(=O)C23CC4CC(CC(Cl)(C4)C2)C3)c1	.	2.2	0.67	-1%
1.1	2	i	13	1	CCOc1cc(C(=O)OCC(=O)c2cc(C)n(CC3CCCO3)c2C)ccc1OCC(=O)N1CCOCC1 (stereo not drawn)	4.0	2.2	0.71	9%
-0.7	.	i	2	9	CCOC(=O)c1[nH]c2ccccc2c1NC(=O)CC(C)(C)C	0.3	-3.6	0.71	1%
.	.	i	-1	-7	COc1ccc(NC(=O)N(C)C[C@H]2Oc3ncc(C#CCC(C)C)cc3C(=O)N([C@@H](C)CO)C[C@@H]2C)cc1	2.1	-12	.	.
0.1	-21	.	.	.	COc1cccc(Oc2cncnc2-c2ccc(OC)cc2O)c1	.	.	0.69	4%
-0.2	-4	i	21	21	C=CCn1c(C)nnc1SCC(=O)Nc1oc(C)c2c(C)n[nH]c(=O)c12	-0.4	-0.1	0.59	5%
2.7	-3	i	5	0	Cc1ccc(C(=O)OCC(=O)NC2CC2)cc1S(=O)(=O)N1CCOCC1	-4.9	0.9	0.69	-2%
.	.	i	0	-3	C[C@H](CO)N1C[C@H](C)[C@@H](CN(C)S(=O)(=O)c2cn(C)cn2)Oc2c(NC(=O)Nc3cccc4ccccc34)cccc2C1=O	-1.0	-2.6	.	.
-2.1	-3	i	-4	3	Clc1ccc(CSc2ncccn2)cc1	0.3	-2.4	0.63	0%
0.6	-3	i	-3	0	Cc1noc(C)c1C(=O)OC(C)C(=O)NC(C)c1ccc(Cl)cc1Cl (stereo not drawn)	0.5	-0.1	0.7	.
-0.5	-6	.	.	.	NC(=O)C1CCN(C(=O)c2ccco2)CC1	.	.	0.7	-2%
.	.	i	-1	-3	COc1ccc2c3c([nH]c2c1)[C@@H](CO)N(C(=O)Nc1ccc(F)cc1)CC31CCN(C(=O)Cc2ccncc2)CC1	-1.2	2.4	.	.
0.0	-2	i	-4	-35	COc1ccc(C(=O)CCC(=O)N2CCN(c3cc(C)ccc3C)CC2)cc1	-3.8	-8.1	0.71	.
-3.0	-9	i	-23	-28	O=S(=O)(Nc1ccc(Cl)cc1)c1cccc2cccnc12	-4.0	-9.0	0.66	1%
0.0	4	i	22	19	CCC(=O)NCCNc1nc2cc(C)cc(C)c2cc1C#N	4.0	-1.9	0.62	-4%
4.5	-3	i	-1	-5	CCC(C)NC(=O)C1CCC(CNS(=O)(=O)c2ccc3c(c2)CC(C)N3C(=O)C2CC2)CC1 (stereo not drawn)	-0.9	-1.4	0.66	-6%
.	.	i	-8	-8	C[C@@H]1CN([C@H](C)CO)C(=O)Cc2cc(NS(=O)(=O)c3ccccc3)ccc2O[C@@H]1CN(C)C(=O)Nc1cccc2ccccc12	8.3	-0.1	.	.
-2.7	-23	i	3	6	Cc1ccc(S(=O)(=O)Nc2ccccc2F)cc1C(=O)NNC(=O)c1csc(N2CCOCC2)n1	2.5	-1.5	0.67	2%
4.4	-18	i	10	15	CCCCNC(=O)Cn1cnc([N+](=O)[O-])n1	1.8	-1.3	0.71	2%
1.1	6	i	2	1	CCc1cc(C(=O)NNC(=O)CCl)sc1C	-0.5	-0.1	0.67	-9%
-0.5	.	i	22	13	CCN(C[C@H]1N[C@@](Cc2ccccc2)(C(=O)OC)[C@H]2C(=O)N(C)C(=O)[C@@H]12)C(C)=O	-0.7	-3.9	0.69	1%
1.5	-5	i	-10	-13	CCN(CC)S(=O)(=O)c1ccc(N2CCCC2)c(NC(=O)c2c(-c3ccccc3)noc2C)c1	6.7	1.9	.	.
-23	-5	.	.	.	S=c1[nH]nc(-c2cc(-c3ccccc3)n[nH]2)n1/N=C/c1c2ccccc2cc2ccccc12	.	.	.	?
1.1	-3	.	.	.	CC1=NN(c2nc3ccccc3[nH]2)C(=O)/C1=C/N(C)C	.	.	0.7	16%
-1.9	.	i	-10	4	Nc1nc(Sc2c([N+](=O)[O-])cc(C(F)(F)F)cc2[N+](=O)[O-])n[nH]1	-2.7	-1.0	0.64	-8%
-0.9	1	.	.	.	CC12CC(NC(=O)N1c1ccc(C(=O)N3CCN(c4ccc(F)cc4)CC3)cc1)c1ccccc1O2 (stereo not drawn)	.	.	0.71	12%
-1.6	-4	.	.	.	NC(=O)C1CCN(C(=S)c2cccs2)CC1	.	.	0.71	-3%
1.8	3	i	-7	11	NC(=O)CC(NC(=O)Cc1cccc2ccccc12)c1ccc(N2CCC(Br)CC2)c([N+](=O)[O-])c1 (stereo not drawn)	-9.9	-2.5	0.7	?
.	.	i	0	8	C[C@H](CO)N1C[C@H](C)[C@@H](CN(C)C(=O)Nc2ccccc2F)Oc2cc(-c3ccc(F)cc3)ccc2S1(=O)=O	5.2	-0.7	.	.
-0.4	1	i	-6	-4	O=C(CCNC(=O)c1ccccc1Cl)NNC(=O)c1ccccc1O	0.7	-4.3	0.66	-1%
1.3	1	.	11	13	CS(=O)(=O)N(CC(=O)N1CCOCC1)c1cc(C(F)(F)F)ccc1Cl	6.2	-1.2	0.7	.
-5.7	-4	i	1	0	COCCN1CCN(C(=O)c2cc(COc3ccc(Cl)cc3OC)on2)CC1	3.0	-1.0	0.71	.
2.2	3	.	.	.	CN(Cc1ccccc1)c1nc2c(c(=O)[nH]c(=O)n2C)n1C	.	.	0.72	-1%
4.2	-3	.	.	.	CCCCOc1ccccc1NC(=O)CSc1nnnn1C(C)(C)C	.	.	0.67	12%
2.1	-2	i	.	.	CCOc1ccc(NC(=O)Cn2nc(C(N)=O)c3ccccc3c2=O)cc1S(=O)(=O)N1CCCC1	.	4.6	0.69	-12%
4.0	71	.	.	.	CC1=Nn2c(nc(-c3ccccc3)c2-c2ccccc2)NC(=O)C1Br (stereo not drawn)	.	.	0.74	-4%
17	6	.	.	.	CCOC(=O)c1c(C)[nH]c(O)c1C=Nc1ccc(Cl)cc1	.	.	0.74	15%
-2.2	-3	.	.	.	O=C(NC1CCCCC1)n1c(=O)oc2ccccc21	.	.	0.64	-4%

# Source: PubChem BioAssay

# A portion of the library, so the mix of outcomes need not match the whole.
